From PubChem
CDC25B CDK2 inh – human CDC25B-CDK2/CyclinA binding inhibition; P30305+P24941; HTRF CDC25B-CDK2/CyclinA binding, anti-His/anti-Flag; stronger effect = higher value; z-score (test concentration not listed); actives 0.72% (n = 94,000);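 further: score is relative to mean and SD of negative controls; strong numbers were not always called active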
HIV TAR-Tat – HIV-1 TAR-Tat binding disruption; z-score (concentration not given with the values); HIV-1 TAR RNA, Tat peptide displacement FRET; stronger effect = higher value; AID 1259389; actives 0.6% (n = 100,000);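 further: score is relative to mean and SD of negative controls; some compounds called inactive have numbers as strong as hits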
Numbers without * were called inactive; x = not tested or not shown.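 How the source made its calls: active means z-score from 3 up in half or more of its runs; inactive means the rest.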

SMILES | CDC25B CDK2 inh | HIV TAR-Tat
CCC1(C)Cc2ccccc2-c2[nH]c(=O)n(-c3ccccc3)c(=O)c21 (stereo not drawn) | -2.4 | 0.77
Cc1ccc(C2c3c(-c4cc(C)ccc4O)n[nH]c3C(=O)N2CCCO)cc1 (stereo not drawn) | 1.2 | 1.2
CCOC(=O)c1noc2nc(C)nc(NC3CCCC3)c12 | x | 0.66
O=[N+]([O-])c1ccc(Sc2c(-c3ccccc3)nc3ncccn23)cc1 | -2.1 | x
CCOC(=O)c1cc(S(=O)(=O)N2CCCC2C(=O)Nc2nc(C)cs2)cn1C (stereo not drawn) | x | -0.75
Cc1cc(NC(=O)C2=CC(c3ccc(F)cc3)=NS(=O)(=O)N2C)no1 | -1.3 | 0.23
CCCCOc1ccc(S(=O)(=O)N2CCN(c3cc(N(C)C)nc(C)n3)CC2)cc1 | 1.1 | 0.2
Cc1cc(-c2ccc(S(=O)(=O)NCCc3ccc(Cl)cc3)cc2)on1 | x | 1.3
COc1ccc(C2CC(=O)C3=C(C2)NC(=O)CC3c2ccc(OC)c(OC)c2)cc1 (stereo not drawn) | 0.29 | 1.3
CCOc1ccccc1-c1nn2c(-c3ccc(F)cc3)nnc2s1 | -0.24 | 1.8
CC(C)C12CN3CC(C(C)C)(CN(C1)C3c1ccc(O)cc1)C2=O (stereo not drawn) | -1.1 | 0.3
Cc1ccc(-c2nnn3c2nc(NCC2CCCO2)c2ccccc23)cc1 (stereo not drawn) | -2.6 | -1.2
Cc1nn(-c2ccc3nnc(C)n3n2)c2c1C(c1ccc(OCc3ccccc3)cc1)CC(=O)N2 (stereo not drawn) | x | -0.75
NC(=O)C1CCN(c2nc3c(S(=O)(=O)c4ccccc4)nnn3c3ccccc23)CC1 | x | 1.5
COC(=O)c1cnc(N/N=C/C=C/c2ccccc2)nc1C(F)(F)F | -2.2 | x
CCC1CCCCN1CCCNC(=O)c1ccc2c(c1)NC(=O)CS2 (stereo not drawn) | 0.36 | x
CCCN1CCN(c2ncnc3onc(-c4ccc(Cl)cc4)c23)CC1 | -0.58 | -0.91
CC1CCC(NC(=O)c2cc(S(=O)(=O)N3CCOCC3)cn2C)CC1 (stereo not drawn) | x | -0.32
Cc1cccc(S(=O)(=O)Nc2cccc(-c3cn4ccc(C)cc4n3)c2)c1 | 0.49 | 0.87
CCc1ccc(-c2cc(C)no2)cc1S(=O)(=O)Nc1cc(C)ccn1 | x | 1.1
O=C1c2oc3ccc(Cl)cc3c(=O)c2C(c2ccc(O)cc2)N1Cc1ccc(F)cc1 (stereo not drawn) | 0.03 | 0.1
CC(C)N(C(=O)Cn1cc(SCC(=O)N2CCCCC2)c2ccccc21)C(C)C | x | -0.45
CCS(=O)(=O)N1CCCc2ccc(NS(=O)(=O)c3ccc(C(C)(C)C)cc3)cc21 | x | 1.4
O=C(NC1CC1)c1noc2c1CCc1sccc1-2 | x | 0.69
Cc1ccc(C)c(C(=O)CC2(O)C(=O)N(Cc3ccccc3)c3ccccc32)c1 (stereo not drawn) | 0.21 | x
COc1ccc(C(=O)N2CCc3sccc3C2c2ccc(Cl)cc2)cc1 (stereo not drawn) | -2.1 | x
COc1cccc(/C=C/c2nc(C#N)c(NCCN3CCOCC3)o2)c1 | -1.4 | 0.27
CCc1cc2c(cc3c(=O)n(CC(=O)NCCOC)nc(CC)n32)s1 | -0.91 | -0.29
CCCN1CCN(c2cc3c(cc2F)c(=O)c(S(=O)(=O)c2cc(C)cc(C)c2)cn3CC)CC1 | x | 0.73
CSc1cccc(NC(=O)c2cn(C)c(=O)c3ccccc23)c1 | 0.31 | 0.28
O=C(Cn1ncc2c(=O)oc3ccccc3c21)NCCN1CCN(c2ccccc2F)CC1 | -1.2 | 1.3
CCCCCC1CCC(C(=O)NC(C(=O)O)C(C)C)CC1 (stereo not drawn) | -0.39 | 0.73
CCOc1ccc(/C=C/c2nc(C#N)c(NCCN3CCOCC3)o2)cc1 | -3.5 | 1.9
Cc1ccc(-c2ccc(=O)[nH]n2)cc1S(=O)(=O)N1c2ccccc2CC1C (stereo not drawn) | 0.25 | 0.89
O=C1NC(c2ccc3c(c2)OCO3)C(C(=O)c2cccs2)C(O)(C(F)(F)F)N1 (stereo not drawn) | -1.7 | x
COc1ccc2oc(=O)c(-c3csc(Nc4cccc(C)c4)n3)cc2c1 | -1.9 | x
CC1Sc2ccc(S(=O)(=O)C(C)CC(=O)NCc3cccs3)cc2NC1=O (stereo not drawn) | x | -1.6
O=C(NCc1ccc(F)cc1)C1CCC(=O)N1C1CCCCC1 (stereo not drawn) | -2.8 | x
CCn1c(SCC(=O)Nc2c(C)cc(C)cc2C)nc2c(c1=O)SCC2 | -0.71 | -0.73
Cn1c(/C=C/c2ccccc2)[n+](C)c2ccccc21 | 0.27 | 3

19 of the compounds above, tab-delimited.
SMILES	CDC25B CDK2 inh	HIV TAR-Tat
O=C1c2oc3ccc(Cl)cc3c(=O)c2C(c2ccc(O)cc2)N1Cc1ccc(F)cc1 (stereo not drawn)	0.03	0.1
CC(C)N(C(=O)Cn1cc(SCC(=O)N2CCCCC2)c2ccccc21)C(C)C	x	-0.45
CCS(=O)(=O)N1CCCc2ccc(NS(=O)(=O)c3ccc(C(C)(C)C)cc3)cc21	x	1.4
O=C(NC1CC1)c1noc2c1CCc1sccc1-2	x	0.69
Cc1ccc(C)c(C(=O)CC2(O)C(=O)N(Cc3ccccc3)c3ccccc32)c1 (stereo not drawn)	0.21	x
COc1ccc(C(=O)N2CCc3sccc3C2c2ccc(Cl)cc2)cc1 (stereo not drawn)	-2.1	x
COc1cccc(/C=C/c2nc(C#N)c(NCCN3CCOCC3)o2)c1	-1.4	0.27
CCc1cc2c(cc3c(=O)n(CC(=O)NCCOC)nc(CC)n32)s1	-0.91	-0.29
CCCN1CCN(c2cc3c(cc2F)c(=O)c(S(=O)(=O)c2cc(C)cc(C)c2)cn3CC)CC1	x	0.73
CSc1cccc(NC(=O)c2cn(C)c(=O)c3ccccc23)c1	0.31	0.28
O=C(Cn1ncc2c(=O)oc3ccccc3c21)NCCN1CCN(c2ccccc2F)CC1	-1.2	1.3
CCCCCC1CCC(C(=O)NC(C(=O)O)C(C)C)CC1 (stereo not drawn)	-0.39	0.73
CCOc1ccc(/C=C/c2nc(C#N)c(NCCN3CCOCC3)o2)cc1	-3.5	1.9
Cc1ccc(-c2ccc(=O)[nH]n2)cc1S(=O)(=O)N1c2ccccc2CC1C (stereo not drawn)	0.25	0.89
O=C1NC(c2ccc3c(c2)OCO3)C(C(=O)c2cccs2)C(O)(C(F)(F)F)N1 (stereo not drawn)	-1.7	x
COc1ccc2oc(=O)c(-c3csc(Nc4cccc(C)c4)n3)cc2c1	-1.9	x
CC1Sc2ccc(S(=O)(=O)C(C)CC(=O)NCc3cccs3)cc2NC1=O (stereo not drawn)	x	-1.6
O=C(NCc1ccc(F)cc1)C1CCC(=O)N1C1CCCCC1 (stereo not drawn)	-2.8	x
CCn1c(SCC(=O)Nc2c(C)cc(C)cc2C)nc2c(c1=O)SCC2	-0.71	-0.73

Next section:
SMILES | CDC25B CDK2 inh | HIV TAR-Tat
O=C(C1=CCN(S(=O)(=O)c2ccccc2)CC1)N1CCN(c2ccccn2)CC1 | -0.07 | 0.64
COC(=O)c1cn(C(=O)c2cccs2)c2ccccc12 | -0.02 | -0.24
Cc1c(Cl)cccc1-n1nnc(-c2nc(-c3ccccc3Cl)no2)c1N | x | 0.2
CCOC(=O)C1=C(C)NC2=C(C(=O)CC(C)(C)C2)C1c1c(C)nn(-c2ccccc2)c1C (stereo not drawn) | -1.1 | 0.24
Cc1ccc2onc(CNC(=O)Nc3nc4ccccc4s3)c2c1 | x | -0.18
CCC(C)(C(=O)NC1CCCC1)N(C(=O)Cc1cccs1)c1ccccc1 (stereo not drawn) | 0.71 | x
CCCN1C(=O)C(O)(CC(=O)c2cccc(-n3cccc3)c2)c2ccccc21 (stereo not drawn) | -1.4 | -1.9
Nc1nc(-c2ccc(Cl)cc2)nn1C(=O)C1CCCCC1 | -1.1 | 0.73
CCCOc1ccc(N2C(=O)CC(SCC(N)C(=O)OCC)C2=O)cc1 (stereo not drawn) | 0.79 | 0.1
Cc1nc(NCCO)c(C#N)c2c1COC(C)(C)C2 | -1.1 | 0.66
O=C(CSc1nc2ccccc2o1)N1CCCc2ccccc21 | 0.11 | x
CCCS(=O)(=O)N1CCc2cc3ccccc3nc21 | -0.97 | -0.21
COc1ccc(-c2ccc(C#N)c(=O)[nH]2)cc1 | -2.3 | 0.85
O=C(Cn1cnc2c(nc3n2CCCCC3)c1=O)NCCCN1CCN(c2ccc(F)cc2)CC1 | x | -1.6
CC1=C(C(=O)OCc2ccccc2)C(c2ccccc2)n2ncnc2N1 (stereo not drawn) | -0.45 | x
Cc1ccc(S(=O)(=O)n2nc(-c3ccccc3)nc2N)cc1 | 1.1 | 1.1
CCSC1=NCN(CCCC(=O)O)CN1 | -2.1 | 0.5
CCc1cc(Nc2cc(Cl)ccc2OC)n2ncnc2n1 | 1.1 | 1.6
CC(C)(C)OC(=O)NC1CCN(c2nccc(C(F)(F)F)n2)CC1 | -0.93 | x
C=CCNC(=O)c1ccc(NC(=O)C2=C(C)OCCS2)cc1 | x | 0.29
COc1cc(/C=N/NC(=S)NC2CC3C=CC2C3)cc(OC)c1OC (stereo not drawn) | -0.08 | x
CN(C)c1ccc(CC2C(=O)Nc3ccc(Br)cc32)cc1 (stereo not drawn) | -0.49 | -0.37
O=C(c1cc2sc3ccccc3c2s1)N1CCOCC1 | 0.02 | x
CC(=O)c1ccc(NC(=O)C2CCN(S(=O)(=O)c3cccs3)CC2)cc1 | -0.85 | x
CC1CCCCC1NC(=O)CN1C(=O)CSc2ncccc21 (stereo not drawn) | 0.49 | 0.56
CC12CCCCC1C1(C=CC(=O)C=C1)C(SCc1ccccc1)=N2 (stereo not drawn) | -0.46 | x
O=C(NCCC1=CCCCC1)C1CCCN(c2nc3ccccc3[nH]2)C1 (stereo not drawn) | x | 0.25
Cc1nc2ccccc2n1CCc1nc2c3ccccc3nc(NCCCN3CCOCC3)n2n1 | -0.09 | -0.77
COc1cccc(-c2noc(NCc3cc(OC)ccc3OC)n2)c1 | x | 0.09
CCC(=O)N1CCCC1c1nc2ccccc2[nH]1 (stereo not drawn) | -0.79 | 0.63
Cc1cc(-c2ccc(C)c(S(=O)(=O)Nc3cccc(C)c3C)c2)on1 | x | 0.47
Cc1nc2sccn2c(=O)c1S(=O)(=O)N1CCCCC1C (stereo not drawn) | x | 1.1
CCc1ccccc1NS(=O)(=O)c1c(C)nc2sccn2c1=O | x | 0.87
Cc1ncc2c(c1O)COC(C(C)C)OC2 (stereo not drawn) | 0.61 | x
Cc1cc2ncn(CC(O)COc3ccccc3C)c2cc1C (stereo not drawn) | -1.6 | -0.24
COc1ccccc1N1CSC2=C(C#N)C(c3ccccc3)CC(=O)N2C1 (stereo not drawn) | 4.9* | -2.2
Cn1c(=O)c2c(-c3ccccc3)n3c(c2n(C)c1=O)C(c1ccc(Br)cc1)OCC3 (stereo not drawn) | -1.5 | -0.3
COC(=O)c1ccc(N2C(=O)CSC2c2ccc(OC)cc2)cc1 (stereo not drawn) | -0.6 | 1.1
O=c1[nH]c(=O)n(C2CCCCC2)c(O)c1C1=Nc2ccccc2SC(c2cccnc2)C1 (stereo not drawn) | -0.58 | 0.78
OC[C@H]1O[C@@H](n2cnc3c(N[C@H]4CCC[C@@H]4O)ncnc32)[C@@H](O)C1O (stereo partly drawn) | x | 1.7
COCCCNC(=S)N/N=C/C=C/c1ccccc1 | -1.2 | x
O=C(Cn1c(=O)oc2ccccc21)Nc1ccccc1F | x | 0.41
CCCCNC(=O)Cn1c2c(c(=O)n3ncnc13)CCC2 | -1.3 | -0.86
CCS(=O)(=O)NCCc1cc2cc(C)c(C)cc2[nH]c1=O | -2 | x
CCOc1ccc(OCC)c(Nc2nc3ccccc3c3nncn23)c1 | x | -0.21
O=S(=O)(c1cc(F)ccc1F)N1CCCC1c1cccs1 (stereo not drawn) | -2.5 | -0.67
C/C(CC1(CC(C)C)CCCCC1)=N\NC(N)=O | -0.34 | x
CCNC(=O)c1c(NC(=O)c2nn(-c3cccc(Cl)c3)ccc2=O)sc2c1CCCC2 | -1.1 | 1.4
Cc1ccc(C)c(S(=O)(=O)Nc2ccc(N3CCCS3(=O)=O)cc2)c1 | x | -0.82
CCOc1ccc(N2C(=O)N(Cc3cc(=O)n4ccccc4n3)c3ccccc3S2(=O)=O)cc1 | x | -1.4
The results go on.
SMILES | CDC25B CDK2 inh | HIV TAR-Tat
CCCCOC(=O)Nc1sc2c(c1C(=O)OCC)CCCC2 | -0.46 | 1.8
Cc1ccnc(NC(=O)c2sc3ccccc3c2Cl)c1 | -0.25 | -0.41
Cc1ccc2nc(-c3ccc4c(c3)OCCO4)cn2c1 | -0.78 | x
COCc1nnc(NC(=O)C2CC(=O)N(CCc3c[nH]c4ccc(Cl)cc34)C2)s1 (stereo not drawn) | -0.87 | -2
O=C(Nc1ccc(OCc2ccccc2)cc1)N1CCCN(c2nccc(C(F)(F)F)n2)CC1 | -1.9 | x
Cc1ccc2c(c1)C(SCC(=O)O)CC1(CCCCC1)O2 (stereo not drawn) | x | 1.5
O=C(Cn1c(-c2cccs2)cc2ccccc21)NCCN1CCOCC1 | x | 0.5
Cc1cc(NC(=O)N2Cc3cccn3-c3ccccc32)ccc1Br | x | 0.87
CC(C)c1ccc2[nH]c3c(c2c1)CCCC3=O | -2.3 | -0.67
O=C(NCCOc1ccccc1)c1nc(-n2cnnc2)ccc1Br | x | 1.7
COc1ccc(NC(=O)CSc2nc3ccc(N4C(=O)c5ccccc5C4=O)cc3s2)c([N+](=O)[O-])c1 | -1.5 | x
CC1CCN(c2ccc(-c3cccc(NS(=O)(=O)c4ccc5c(c4)OCCO5)c3)nn2)CC1 | x | -0.65
N#CCc1nnc2n1CCCCC2 | -2.7 | x
O=c1cc(O)c2c(n1-c1ccccc1)CCCC2 | 0.84 | x
CCN(CC)CCn1c(C)nc2ccccc21 | -0.96 | 1.5
Nc1nc(Cc2ccc(F)cc2F)no1 | -0.13 | x
Cc1cc(C)c2oc(C(=O)Nc3sc4c(c3C(=O)NCc3ccco3)CCCC4)cc(=O)c2c1 | -1.3 | 1.9
